High-throughput results from PubChem.
RE007 growth inh – qHTS Assay for Inhibitors of the HIV-1 protein Vpr; Potency, µM (highest dose often 92.2 µM), for the others: at the top dose activity change, negative = less growth; 360,000 compounds, 0.21% hits; S. pombe RE007 Vpr strain, BacTiter-Glo ATP luminescence, 24 h; control for the full effect not named in the record; active = well fitted falling curve with a large enough effect; inconclusive = small, poorly fitted or top-dose-only effect; inactive = no such curve, though single readings can be large or run the other way;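 also: % is scaled to controls: 0 for no effect and ±100 for the full control effect; nearly all actives have a fitted effect of over 50% in size; the assay follows cell death caused by Vpr and the record does not say whether a fall means rescue or toxicity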
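Fission yeast RE007 carrying one integrated HIV-1 vpr copy, seeded at OD 0.01 in PMG+AL medium with 23 nL pinned compound. Grown 24 h at 30 degrees; viability read by BacTiter-Glo luminescence after 5 min.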
NS1 inh – qHTS Assay for Inhibitors of Influenza NS1 Protein Function; 270,000 compounds, 0.4% hits; S. cerevisiae slowed by influenza A NS1, growth recovery by OD600; Potency, µM (doses to about 46.1 µM), inactives show top-dose activity, positive = more growth; active means well fitted rising curve with a large enough effect; inconclusive means small, poorly fitted or top-dose-only effect; inactive means no such curve, though single readings can be large or run the other way; also: nearly all actives have a fitted effect of over 50% in size
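Compounds were scored for reversing the slow growth caused by influenza A NS1 in S. cerevisiae, measured by optical density at 600 nm. Assay medium contained 2% galactose at pH 6.0; NS1-free yeast of the same strain were the positive control.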
Lassa entry inh – qHTS for Inhibitors of binding or entry into cells for Lassa Virus; 300,000 compounds, 1.2% hits; Lassa virus pseudotype entry inhibition, cell reporter; control for the full effect not named in the record; Potency, µM (top dose mostly 37.9 µM), inactives show at the top dose activity change, negative = inhibition, actives largely listed as inhibitors; active means well fitted inhibition curve with a large enough effect; inconclusive means small, poorly fitted or top-dose-only effect, or effect the other way; inactive means flat fitted curve, though single readings scatter; tested in HEK293 cells; also: % is scaled to controls: 0 for no effect and ±100 for the full control effect; nearly all actives have a fitted effect of over 50% in size; luciferase read-out
MARV entry inh – qHTS for inhibitors of binding or entry into cells for Marburg Virus | Marburg virus pseudotyped entry inhibition, cell reporter; control for the full effect not named in the record; about a third of the inactives were read at about 46 µM | Potency, µM (top dose mostly 37.8 µM), for the others: top-dose activity change, negative = inhibition, usual class: inhibitors | 300,000 compounds, 1.8% hits | AID 540276, 2011; active = well fitted inhibition curve with a large enough effect; inconclusive = small, poorly fitted or top-dose-only effect, or effect the other way; inactive = flat fitted curve, though single readings scatter; tested in HEK293 cells; about a fifth of its hits are not listed in these tables; also: % is scaled to controls: 0 for no effect and ±100 for the full control effect; luciferase read-out
SARS PLP yeast – qHTS of Yeast-based Assay for SARS-CoV PLP; Potency, µM (highest dose often 32.9 µM), for the others: at the highest dose activity, positive = growth rescue; 330,000 compounds, 0.19% hits; AID 485353, 2010; S. cerevisiae expressing SARS-CoV PLpro, growth rescue; control for the full effect not named in the record; active means well fitted rising curve with a large enough effect; inconclusive means small, poorly fitted or top-dose-only effect; inactive means no such curve, though single readings can be large or run the other way; also: 0% is about no effect; nearly all actives have a fitted effect of over 55% in size; growth read by luminescence after 48 h
2A StopGo – High Throughput Screening for Foot and Mouth Disease Virus Antivirals; human cells with a luciferase reporter of 2A StopGo recoding; control for the full effect not named in the record; Potency, µM (top dose mostly 57.9 µM), without a hit: at the highest dose signal change, negative = less light; 410,000 compounds, 1.2% hits; active = well fitted falling curve with a large enough effect; inconclusive = small, poorly fitted or top-dose-only effect; inactive = no such curve, though single readings can be large or run the other way; tested in HEK293T cells; also: % is scaled to controls: 0 for no effect and ±100 for the full control effect; nearly all actives have a fitted effect of over 45% in size; luciferase light after 4 h
Cruzain inh Det – qHTS Assay for Promiscuous and Specific Inhibitors of Cruzain (with detergent) | Cruzipain (Trypanosoma cruzi), P25779 | purified cruzain, Z-FR-AMC fluorescence, 0.01% Triton | Potency, µM, for the others: max response, negative = inhibition, hits mostly inhibitors | 200,000 compounds, 0.43% hits | AID 1478, 2009;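 also: plate controls were neutral wells for no effect and buffer without enzyme for full effect; nearly all actives have a fitted effect of over 40% in size; top concentration of the series not given in the record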
Target sequence (P25779 123-467 limits assumed): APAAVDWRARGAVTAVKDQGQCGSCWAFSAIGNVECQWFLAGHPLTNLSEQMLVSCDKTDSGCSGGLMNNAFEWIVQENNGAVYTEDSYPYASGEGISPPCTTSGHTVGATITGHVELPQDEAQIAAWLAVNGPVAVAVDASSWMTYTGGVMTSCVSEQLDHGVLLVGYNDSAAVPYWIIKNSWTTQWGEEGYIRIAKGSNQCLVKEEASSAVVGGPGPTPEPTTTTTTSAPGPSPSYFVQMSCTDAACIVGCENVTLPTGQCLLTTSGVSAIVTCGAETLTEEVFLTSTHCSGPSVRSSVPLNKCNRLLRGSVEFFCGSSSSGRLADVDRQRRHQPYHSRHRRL
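Read-out: AMC fluorescence (360 nm excitation, 450 nm emission), four reads over 2 min, first-to-third difference used. Conditions: cruzain 1.5 nM, Z-FR-AMC 2 uM, pH 5.5 acetate, 5 mM DTT, 0.01% Triton X-100.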
Cruzain inh noDet – qHTS Assay for Promiscuous and Specific Inhibitors of Cruzain (without detergent); purified cruzain, Z-FR-AMC fluorescence, no detergent; 200,000 compounds, 2.3% hits; Potency, µM, without a hit: max response, negative = inhibition, hits mostly inhibitors; AID 1476, 2009; Cruzipain (Trypanosoma cruzi), P25779;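 also: plate controls were enzyme without inhibitor for no effect and buffer without enzyme for full effect; nearly all actives have a fitted effect of over 40% in size; top concentration of the series not given in the record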
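Purified cruzain at 1.5 nM, pre-incubated 15 min with compound at room temperature in 100 mM sodium acetate pH 5.5, 5 mM DTT, 0.00005% Triton X-100. Reaction started with 2 uM Z-FR-AMC; AMC fluorescence increase over 60 s gives rate.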
* hit, by the source's call; [ ] = another dose, or the depositor's remark. Unless noted, calls follow the shape of the dose curve; as a rule, active = well fitted curve in the direction sought with a large enough effect; inconclusive = small, poorly fitted or top-dose-only effect, or another doubt; inactive = no such curve, though single readings can be large; an effect the other way counts as inactive or inconclusive. Potency is read from the fitted curve at half-maximal effect.

How did Cc1ccc(-n2c(SCC(N)=O)nnc2-c2ccccn2)cc1 do in these assays?
RE007 growth inh: 16.1%; NS1 inh: -2.2%; Lassa entry inh: 15.1%; MARV entry inh: -32.0%; SARS PLP yeast: 5.7%; 2A StopGo: -25.8%; Cruzain inh Det: 1.6%; Cruzain inh noDet: -4.0%

What do the screens show for `CC(C)(C)CC(=O)O/N=C(\N)c1ccccn1`?
RE007 growth inh: -12.3%; NS1 inh: -4.3%; Lassa entry inh: inconclusive; MARV entry inh: inconclusive; SARS PLP yeast: 20.2%; 2A StopGo: -54.7%; Cruzain inh Det: 7.2%; Cruzain inh noDet: 8.1%

How did Cc1cc(C)n(CCc2nc(-c3cc4ccccc4o3)cs2)n1 do in these assays?
RE007 growth inh: 8.1%; NS1 inh: -9.2%; Lassa entry inh: inconclusive; MARV entry inh: -26.6%; SARS PLP yeast: 5.7%; 2A StopGo: -17.0%; Cruzain inh Det: -4.8%; Cruzain inh noDet: 6.2%

Results for CCn1c(SCC(=O)c2cc(OC)ccc2OC)nnc1C1CC1 ?
RE007 growth inh: -1.7%; NS1 inh: 0.1%; Lassa entry inh: -1.2%; MARV entry inh: -4.0%; SARS PLP yeast: 0.1%; 2A StopGo: -2.4%; Cruzain inh Det: -4.0%; Cruzain inh noDet: -0.3%

Results for CN(C)S(=O)(=O)c1ccc(-c2csc(N/N=C/c3ccco3)n2)cc1 ?
RE007 growth inh: -4.6%; NS1 inh: 7.3%; Lassa entry inh: 8.91µM*; MARV entry inh: inconclusive; SARS PLP yeast: -3.0%; 2A StopGo: 6.31µM*

What do the screens show for `CCCn1c(=O)c(C(=O)NCC2CCCO2)c(O)c2ccccc21` (stereo not drawn)?
RE007 growth inh: 7.0%; NS1 inh: 3.9%; Lassa entry inh: -7.9%[46.1 µM]; MARV entry inh: 21.6%[46.1 µM]; SARS PLP yeast: -0.8%; 2A StopGo: 15.0%

What do the screens show for `CCOC(=O)C1CCCCN1Cc1cn(C)nc1-c1ccccc1F` (stereo not drawn)?
RE007 growth inh: -11.7%; NS1 inh: 0.1%; Lassa entry inh: -10.5%; MARV entry inh: -1.6%[46.1 µM]; SARS PLP yeast: 2.1%; 2A StopGo: -10.3%

What do the screens show for `Cc1ccc(OCc2ccc(C#N)cc2)c(C(=O)c2cc(C#N)c(=O)n(C3CC3)c2)c1`?
RE007 growth inh: 7.4%; NS1 inh: 6.4%; SARS PLP yeast: 5.4%; 2A StopGo: inconclusive; Cruzain inh Det: 2.1%; Cruzain inh noDet: -1.7%

How did Cc1ncc(CN2CCCC(C(=O)c3ccc(C(C)(C)C)cc3)C2)s1 (stereo not drawn) do in these assays?
RE007 growth inh: -13.2%; NS1 inh: -4.2%; SARS PLP yeast: -0.2%; 2A StopGo: inconclusive

How did Cc1ccc(C(=O)Nc2c(N)nc(SCC(=O)Nc3cc(C)on3)[nH]c2=O)cc1 do in these assays?
RE007 growth inh: -5.2%; NS1 inh: 10.4%; Lassa entry inh: -6.9%; MARV entry inh: 2.0%; SARS PLP yeast: 2.9%; 2A StopGo: -16.0%

Results for COc1ccc(C2(c3ccc(O)cc3O)CC(c3ccccc3Cl)NC(=S)N2)cc1 (stereo not drawn) ?
RE007 growth inh: 3.1%; NS1 inh: 0.7%; Lassa entry inh: -27.9%; MARV entry inh: inconclusive; SARS PLP yeast: -0.1%; 2A StopGo: -10.0%

Results for O=C(CNC(=O)c1cccs1)NCC(=O)OCc1c(F)cccc1Cl ?
RE007 growth inh: -0.5%; NS1 inh: 3.5%; Lassa entry inh: -0.4%; MARV entry inh: inconclusive; SARS PLP yeast: 14.6%; 2A StopGo: 15.0%

Results for COc1ccc(C(=O)/C=C/Nc2ccc([N+](=O)[O-])cc2)cc1 ?
RE007 growth inh: 5.0%; NS1 inh: 7.4%; Lassa entry inh: 1.2%; MARV entry inh: 19.6%; SARS PLP yeast: -4.9%; 2A StopGo: 27.5%; Cruzain inh Det: -0.9%; Cruzain inh noDet: -24.5%

Results for CCc1nc(-c2ccccc2)c2ccccn12 ?
RE007 growth inh: 11.2%; Lassa entry inh: -11.5%; MARV entry inh: 0.4%[46.1 µM]; SARS PLP yeast: -3.6%; 2A StopGo: -0.6%

Results for COc1ccc(CN(CCC(C)C)S(=O)(=O)c2ccccc2Br)c(OC)c1 ?
RE007 growth inh: 7.6%; Lassa entry inh: -31.6%[46.1 µM]; MARV entry inh: 0.8%; SARS PLP yeast: -9.4%; 2A StopGo: -19.1%

Results for O=C(CC1SC(=NCC2CCCO2)NC1=O)Nc1cccc2ccccc12 (stereo not drawn) ?
RE007 growth inh: 7.1%; NS1 inh: -0.7%; Lassa entry inh: -8.1%; MARV entry inh: inconclusive; SARS PLP yeast: 0.2%; 2A StopGo: -0.8%; Cruzain inh Det: 0.9%; Cruzain inh noDet: -4.1%

How did C=CCNC(=O)CSc1nc2sc3c(c2c(=O)n1CCCOC)CCC3 do in these assays?
RE007 growth inh: 0.8%; NS1 inh: -1.5%; SARS PLP yeast: -0.4%; 2A StopGo: -19.8%

What do the screens show for `O=C(/C=C/c1ccccc1)c1ccc2c(c1)OCCCCO2`?
RE007 growth inh: inconclusive; NS1 inh: -30.4%; Lassa entry inh: inconclusive; MARV entry inh: inconclusive; SARS PLP yeast: -11.5%; 2A StopGo: 17.0%; Cruzain inh Det: -9.3%; Cruzain inh noDet: -1.8%

What do the screens show for `CN(C)c1ccc(CNC(=O)c2ccc3nc(Cc4ccccc4)oc3c2)cc1`?
Lassa entry inh: -24.1%[46.1 µM]; 2A StopGo: -10.8%; Cruzain inh Det: -2.6%; Cruzain inh noDet: -6.0%

How did CC1(C)CC(=O)C(C2(O)C(=O)Nc3ccccc32)CO1 (stereo not drawn) do in these assays?
RE007 growth inh: 6.6%; NS1 inh: -4.9%; Lassa entry inh: inconclusive; MARV entry inh: inconclusive; SARS PLP yeast: 1.5%; 2A StopGo: -18.7%

Results for NS(=O)(=O)c1ccc(CNC(=O)c2ccc(Br)o2)cc1 ?
RE007 growth inh: -1.7%; NS1 inh: 1.4%; Lassa entry inh: 7.7%; MARV entry inh: -10.5%[46.1 µM]; SARS PLP yeast: -4.1%; 2A StopGo: -19.5%; Cruzain inh Det: 4.7%; Cruzain inh noDet: -6.4%

How did CCC(C)(C)n1nnnc1C(c1cc(OC)ccc1OC)N1CCN(Cc2ccccc2)CC1 (stereo not drawn) do in these assays?
RE007 growth inh: 2.7%; NS1 inh: -1.0%; Lassa entry inh: -7.7%[46.1 µM]; MARV entry inh: inconclusive; SARS PLP yeast: -0.5%; 2A StopGo: -1.2%

What do the screens show for `CCCNC(=O)N1[C@H](c2ccc(C)s2)[C@@H](C)C(=O)[C@@H](C)[C@@H]1c1ccc(C)s1`?
Lassa entry inh: -4.0%[46.1 µM]; MARV entry inh: 2.0%[46.1 µM]; 2A StopGo: 0.0%; Cruzain inh Det: -4.7%; Cruzain inh noDet: 6.4%

Results for CC(C)CCN1CCN(CCCc2ccccc2)CC1CCO (stereo not drawn) ?
RE007 growth inh: 0.8%; NS1 inh: -3.7%; SARS PLP yeast: 0.0%; 2A StopGo: -24.4%

What do the screens show for `O=C(CN1C(=O)NC2(CCCCCC2)C1=O)c1ccc2c(c1)OCCO2`?
RE007 growth inh: -6.0%; NS1 inh: -6.9%; Lassa entry inh: inconclusive; MARV entry inh: -15.6%[46.1 µM]; SARS PLP yeast: -1.9%; 2A StopGo: 40.3%[activator]; Cruzain inh Det: -1.6%; Cruzain inh noDet: 1.4%

Results for CCN1CCN(S(=O)(=O)c2ccc(OC)cc2)CC1 ?
RE007 growth inh: -1.6%; NS1 inh: 18.2%; Lassa entry inh: -18.7%; MARV entry inh: 25.7%; SARS PLP yeast: 1.3%; 2A StopGo: -18.4%

Results for O=C(NCc1ccccc1Cl)C1CCCN(C(=O)Nc2ccc(F)cc2)C1 (stereo not drawn) ?
RE007 growth inh: 1.6%; NS1 inh: -8.5%; Lassa entry inh: inconclusive; MARV entry inh: inconclusive; SARS PLP yeast: 1.1%; 2A StopGo: inconclusive

What do the screens show for `O=C(Nc1c(F)c(F)c(F)c(F)c1F)C1CCCCC1`?
RE007 growth inh: 0.8%; NS1 inh: 3.9%; Lassa entry inh: 5.7%; MARV entry inh: inconclusive; SARS PLP yeast: -2.3%; 2A StopGo: -9.2%; Cruzain inh Det: 0.3%; Cruzain inh noDet: -2.7%

What do the screens show for `Cc1ccccc1C(=O)NC(NCC1CCCO1)C(Cl)(Cl)Cl` (stereo not drawn)?
RE007 growth inh: 2.4%; NS1 inh: -1.6%; Lassa entry inh: 8.2%; MARV entry inh: 1.6%; SARS PLP yeast: 5.2%; 2A StopGo: -20.1%; Cruzain inh Det: 0.1%; Cruzain inh noDet: 0.6%

Results for Cc1csc(NC(=O)c2c(O)c3cccc4c3n(c2=O)CCC4)n1 ?
NS1 inh: -8.1%; SARS PLP yeast: -4.9%; Cruzain inh Det: 2.0%; Cruzain inh noDet: 4.8%

What do the screens show for `CC1(C)C2CCC(C2)C1(C)NC(=O)C[N+](C)(C)C` (stereo not drawn)?
RE007 growth inh: -8.6%; NS1 inh: 0.4%; SARS PLP yeast: 0.5%; 2A StopGo: -3.3%

Results for Cc1cccc(CS(=O)(=O)c2ncc(Cl)c(C(=O)Nc3ccc(F)cc3)n2)c1 ?
RE007 growth inh: 4.5%; NS1 inh: -25.6%; SARS PLP yeast: -2.7%; 2A StopGo: -11.0%

How did CCOc1cc(/C=C2/C(=N)N3OC(C)=CC3=NC2=O)ccc1OC do in these assays?
RE007 growth inh: 1.0%; Lassa entry inh: 9.9%[46.1 µM]; MARV entry inh: 14.7%[46.1 µM]; SARS PLP yeast: -5.2%; 2A StopGo: -12.8%

Results for Cc1ccc(NC(=O)Cn2c(C)cc(C)c(C#N)c2=O)cc1 ?
Lassa entry inh: 2.3%[46.1 µM]; 2A StopGo: -24.7%; Cruzain inh Det: -2.7%; Cruzain inh noDet: -2.3%
